VDR inh – vitamin D3 receptor (human) inhibition; P11473; VDR-SRC2-3 peptide fluorescence polarization, 2 h; Potency, µM, without a hit: max response, negative = inhibition, actives largely listed as inhibitors; 400,000 tested, 0.93% active; active = well fitted inhibition curve with a large enough effect; inconclusive = small, poorly fitted or top-dose-only effect, or another doubt; inactive = no such curve, though single readings can be large or run the other way; note: series mostly up to about 120 µM
Target sequence (P11473 whole entry, looked up): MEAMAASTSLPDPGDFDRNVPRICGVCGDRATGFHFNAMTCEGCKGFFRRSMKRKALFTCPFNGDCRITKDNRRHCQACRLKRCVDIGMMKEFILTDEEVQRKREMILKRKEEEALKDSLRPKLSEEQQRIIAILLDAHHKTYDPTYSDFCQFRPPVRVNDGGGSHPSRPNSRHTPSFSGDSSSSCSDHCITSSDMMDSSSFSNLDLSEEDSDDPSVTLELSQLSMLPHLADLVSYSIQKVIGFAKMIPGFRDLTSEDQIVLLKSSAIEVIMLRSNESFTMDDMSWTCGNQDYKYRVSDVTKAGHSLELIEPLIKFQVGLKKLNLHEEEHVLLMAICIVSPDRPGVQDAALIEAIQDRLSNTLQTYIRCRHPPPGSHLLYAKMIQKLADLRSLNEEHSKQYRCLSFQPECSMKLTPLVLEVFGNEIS
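The screen uses fluorescence polarization to detect compounds that interfere with recruitment of the SRC2-3 coactivator peptide to VDR; plates are read after 2 h at room temperature.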
* hit, by the source's call; ? = inconclusive; & = joins results of further samples. % is set by controls: 0 for no effect and ±100 for the full control effect; potency is the fitted concentration of half-maximal effect.

VDR inh	SMILES
5.1%	CC[N+]1(CC)CC2=Cc3ccccc3CC2C1 (stereo not drawn)
-11.5%	CC(C)(C)CC(=O)Nc1nn[nH]n1
39.8µM*	COC(CNC(=O)c1ccc2c3c(onc13)-c1ccccc1C2=O)OC
-9.0%	COc1cc(/C=N/NC(=O)c2cccc([N+](=O)[O-])c2)ccc1OCc1ccc(C)cc1
-3.1%	COC(=O)c1cc(S(=O)(=O)NCc2ccc(S(N)(=O)=O)cc2)oc1C
-8.7%	CC(C)c1ccc(S(=O)(=O)N2CCN(C(=O)[C@@H]3CCCN3C(=O)c3cccs3)CC2)cc1
10µM*	Oc1c(CN2CCOCC2)cc(CN2CCOCC2)c(O)c1CN1CCOCC1
-2.0%	CCOC(=O)CCC(=O)N(CCN(C(=O)CCC(=O)OCC)c1ccccc1)c1ccccc1
1.1%	Cc1nn(C)c(C(=O)NC(=S)Nc2ccccc2O)c1Cl
-13.0%	COc1ccc(S(=O)(=O)Nc2cc(C(=O)NCCC(C)C)ccc2N2CCOCC2)cc1
-20.5%	NS(=O)(=O)c1ccc(NC(=O)/C=C/c2ccccc2Cl)cc1
-6.5%	CN1CCC(=NNC(=O)C(=O)Nc2ccccc2)CC1
6.1%	CC(C)Nc1ncnc2ccc(Br)cc12
8.3%	COc1ccccc1NC(=O)c1sc2nc(C)c(C(=O)Nc3ccc(C)cc3C)c(-c3cccs3)c2c1N
-23.2%	CNC(=O)c1ccsc1NC(=O)c1ccc(S(=O)(=O)N2CCOCC2)cc1
-13.7%	COc1ccc2[nH]cc(CCNc3ncncc3-c3ccccc3OC)c2c1
-2.1%	O=C(COC(=O)c1ccc(O)cc1O)Nc1ccc2c(c1)OCCO2
-4.9%	Cc1ccc(CSc2nnc(NC(=O)C3=COCCO3)s2)cc1
-26.0%	CCCCNC(=O)N(O)C1N(/N=C/c2ccccc2OC)C(=S)SC1(C)C (stereo not drawn)
4.8%	CCc1nnc(NC(=O)CSc2nnc3ncccn23)s1
11.9%	COc1ccccc1OCCNC(=O)C1CCCCC1
3.8%	Cc1cc[n+](CC(=O)c2ccc3c(c2)OCCO3)cc1
?	CC(=O)Nc1ccc(-c2c(C)cc3oc(=O)cc(-c4ccccc4)c3c2C)cc1
-0.2%	COc1ccc(CNc2oc(/C=C/c3cc(OC)c(OC)c(OC)c3)nc2C#N)cc1
10.0%	O=C(O)c1cccc(CSc2ncccn2)c1
18.4%	Cc1cc(C)cc(NC(=O)N2CCCC2C(=O)Nc2ccc(-n3cnnn3)c(C)c2)c1 (stereo not drawn)
-1.6%	CC(=O)c1c(OC(=O)c2ccccc2)c2ccccc2n1C
-2.8%	COc1cc2c(cc1OC)C(COc1ccc(F)cc1)NCC2 (stereo not drawn)
3.9%	O=c1[nH]c2ccccc2nc1C(Nc1ccccc1)c1ccccc1 (stereo not drawn)
-27.0%	O=C(Nc1ccccc1Cl)C1CCCN(S(=O)(=O)c2cccc3cccnc23)C1 (stereo not drawn)
-8.7%	CCCCC(=O)OCc1cn(-c2ccc(Cl)cc2)nn1
-6.0%	COc1ccc(C(=O)Nc2ccc(S(=O)(=O)Nc3nccc(C)n3)cc2)cc1[N+](=O)[O-]
-9.4%	COC(=O)CCCC(=O)N1CCC(CCC(=O)NC2CC2)CC1
3.4%	COc1ccc(N2CC(NC(=O)Cc3cccs3)CC2=O)cc1 (stereo not drawn)
-9.0%	COc1ccc(N2CCN(CC(=O)Nc3c(C)cc(C)cc3C)CC2)cc1
6.2%	Cc1cc(OCC(=O)N(Cc2ccc(N(C)C)cc2)Cc2ccco2)cc(C)c1Cl
17.7%	Cc1ccccc1OC(=O)CSc1nnc(-c2ccc3c(c2)OCO3)o1
-5.8%	O=C1COc2cccnc2N1
-3.5%	Cc1ccc(-c2nc3ccccc3c(=O)n2O)cc1
-9.4%	Cc1ccccc1NS(=O)(=O)c1cc2c(cc1C)N(C)CCO2
13.9%	CC(=O)NCCC(=O)Nc1ccc(C)c(F)c1
0.1%	Cc1nnc(SCc2cnc(-c3ccc(C(C)C)cc3)s2)n1C
4.6%&2.7%	Cc1c(C)n(C)c2ccc(C(=O)NCCCN3CCCCC3C)cc12 (stereo not drawn)
12.2%	CCOc1cc(NC(=O)c2ccccc2OC)c(OCC)cc1NC(=O)c1ccccc1
-1.3%	O=C(c1csnn1)N1CCC2(CC1)CCN(c1cccc(-c3ccccc3)c1)CC2
4.8%	COc1cccc(C(=O)N(Cc2cccc(Cl)c2)Cc2ccco2)c1
1.3%	O=C(CN(C(=O)CCC(=O)Nc1nccs1)c1ccccc1F)NCc1ccc2c(c1)OCO2
-22.2%	CCC(C)(C)C1CCc2[nH]nc(C(=O)N/N=C(\C)c3ccco3)c2C1 (stereo not drawn)
1.9%	O=C(CN(CC1CCCO1)C(=O)CNS(=O)(=O)c1ccccc1)NCc1ccco1 (stereo not drawn)
?	N#C/C(=C\c1cc(Br)ccc1F)C(=O)NC1CC1
-4.0%	c1ccc(CSc2ccc3nnc(-c4ccccn4)n3n2)cc1
-16.1%	CNC(=S)N(CCc1c(C)[nH]c2ccccc12)Cc1cc(OC)c(OC)c(OC)c1
-23.4%	O=C(NCc1ccccn1)Nc1ccc(Cl)cc1
5.4%	CC(C)c1ccc(N2CCN(C(=O)c3ccccc3NC(=O)/C=C\C(=O)O)CC2)cc1
5.6%	COc1ccc2cc(C(=O)C3CCCN(C(=O)c4csnn4)C3)ccc2c1 (stereo not drawn)
15.3%	CN1C(=O)N(c2cccc3ccccc23)C(n2cncn2)C1(C)C (stereo not drawn)
-1.4%	COc1ncc2nc(-c3ccc(Cl)cc3)c(=O)n(C)c2n1
3.1%	CNC(=O)C1CCC(Cn2c(=O)c3sccc3n(CC(=O)N3CCCCC3C)c2=O)CC1 (stereo not drawn)
-8.9%	O=C(C1CCN(Cc2ccc(F)cc2)CC1)N1CCN(C/C=C/c2ccccc2)CC1
17.0%	Cc1ccc2c(c1)nnn2C1CCN(CC(=O)N2CCN(c3ccc(F)cc3)CC2)CC1

Following part.
VDR inh	SMILES
4.0%	N#C/C(C(=O)NCc1ccco1)=C1/SC(Cc2ccc(F)cc2)C(=O)N1c1ccccc1 (stereo not drawn)
5.4%	COc1ccc(CCNC(=O)CCCn2c(=O)c3ccccc3n(CC(=O)Nc3cc(Cl)ccc3C)c2=O)cc1OC
-27.3%	COc1ccccc1CCNC(=O)C(=O)NCC1OCCN1S(=O)(=O)c1ccc(Cl)cc1 (stereo not drawn)
15.4%	Cc1nc(N)c(C#N)c(-c2ccccc2Cl)c1C
10.2%	CCOC(=O)c1c(C)[nH]c(C)c1S(=O)(=O)NCC(=O)NCc1ccccc1C
8.9%	COc1ccc(NC(=O)Cc2coc3cc(C)cc(C)c23)c(OC)c1
7.2%	Cc1cc(C)c2cc(C#N)c(SCC(=O)NCc3ccco3)nc2c1
9.6%	COc1cccc(NC(=O)c2ccc(NCCCN3CC(C)CC(C)C3)c([N+](=O)[O-])c2)c1 (stereo not drawn)
0.8%	CC(C)c1ccc(NC(=O)Cn2ncc3ccccc32)cc1
-24.3%	CCCC[C@@H]1C[C@H]1[C@@H](NC(=O)c1ccco1)c1ccc(C(=O)OC)cc1
-20.1%	Cc1cc(C(=O)NCC(C)C)c2ccccc2n1
-0.6%	CCOC(=O)N1CCN(S(=O)(=O)c2ccc(C(=O)NNc3nc4cc(C)cc(C)c4s3)cc2)CC1
10.5%	CCCS(=O)(=O)NCCc1sc2nc(-c3ccc(F)cc3)nn2c1C
-4.0%	COc1ccc2cc(CN(CC3CCCO3)C(=S)Nc3ccccc3)c(=O)[nH]c2c1 (stereo not drawn)
6.2%	CC(NC(=O)COC(=O)c1cccs1)c1ccccc1 (stereo not drawn)
-18.0%	Cc1ccc(C)c(N(C)C(=O)c2cc3c(=O)[nH]c4ccc(C)cc4c3s2)c1
-13.0%	Cc1cc(NC(=O)c2noc3c2CCc2ccccc2-3)no1
-4.5%	CC(=O)Nc1cccc(OCC(=O)Nc2sccc2C(N)=O)c1
-17.1%	CCCCn1c(SCC(=O)c2ccc(O)c(O)c2)nc2ccsc2c1=O
-11.8%	O=C(NNC(=O)c1ccc(Oc2ccc(C3SCCS3)cc2)o1)c1ccc(Cl)cc1
12.2%	CC1=C(C(N)=O)C(c2cccc(O)c2)n2ncnc2N1 (stereo not drawn)
?	CCCC(C)c1nnc(NC(=O)CS(=O)(=O)Cc2ccccc2)s1 (stereo not drawn)
0.0%	Cc1cccc(C(=O)N2CCC(=O)N(C(COCc3cccc(C(F)(F)F)c3)Cc3ccccc3)CC2)c1 (stereo not drawn)
7.8%	COC(=O)Nc1ccc(S(=O)(=O)N2CCC(C)CC2)cc1
-9.5%	O=C(CNC(=O)c1ccc(F)cc1)OCc1cc(=O)n2ccsc2n1
-18.0%	CCn1c(/N=C/c2c[nH]c3ccccc23)nc2ccccc21
-14.6%	CN(C(=O)COC(=O)CNC(=O)c1cccs1)c1c(N)n(Cc2ccccc2)c(=O)[nH]c1=O
2.9%	COc1ccc2c(c1)CC(C(=O)NCCN1CCN(c3cccc(Cl)c3)CC1)CO2 (stereo not drawn)
-9.3%	O=C(O)Cc1ccc(NC(=S)NCc2ccco2)cc1
-0.9%	CC(C)CCC(O)(CCC(C)C)C(=O)NN1CCCCC1

7 entries already listed, sorted by molecular weight, falling:
VDR inh	SMILES
10.2%	CCOC(=O)c1c(C)[nH]c(C)c1S(=O)(=O)NCC(=O)NCc1ccccc1C
?	CCCC(C)c1nnc(NC(=O)CS(=O)(=O)Cc2ccccc2)s1 (stereo not drawn)
-4.5%	CC(=O)Nc1cccc(OCC(=O)Nc2sccc2C(N)=O)c1
-13.0%	Cc1cc(NC(=O)c2noc3c2CCc2ccccc2-3)no1
-18.0%	CCn1c(/N=C/c2c[nH]c3ccccc23)nc2ccccc21
12.2%	CC1=C(C(N)=O)C(c2cccc(O)c2)n2ncnc2N1 (stereo not drawn)
-20.1%	Cc1cc(C(=O)NCC(C)C)c2ccccc2n1

(next part)
VDR inh	SMILES
-4.1%	COc1ccccc1CNC(=O)C1CCC(CNS(=O)(=O)c2ccc(C)cc2)CC1 (stereo not drawn)
-9.1%	CCCN(CC(=O)Nc1ccc(F)c(F)c1F)C(=O)c1ccc2c(=O)n3c(nc2c1)CCC3
16.8%	COC(CNC(=O)c1ccc2c(c1)ncn2C1CCCCCC1)OC
16.9%	O=C(CCCN=C1NS(=O)(=O)c2ccccc21)OCc1ccc(F)cc1
-4.8%	CC(=O)N1CCN(S(=O)(=O)c2cccc(C(=O)N(Cc3ccccc3)c3cccc(C)c3)c2)CC1
9.9%	Cc1ccc(-c2nnc(SCC(=O)N3CCOCC3)nc2-c2ccc(C)cc2)cc1
-2.4%	COc1ccc(COC(=O)C2=C(C)NC(=O)CC2c2cccc(Cl)c2Cl)cc1 (stereo not drawn)
1.1%	Cc1cc([N+](=O)[O-])nn1CC(=O)N/N=C/c1ccccc1Br
-22.7%	Cc1cc(Br)ccc1NC(=O)CNC(=O)c1ccc(-n2cncn2)c([N+](=O)[O-])c1
-86.9%	O=C(c1ccc(Cl)c(S(=O)(=O)N2CCCCC2)c1)N1CCCCC1
-16.8%	CCN(CC)CCN(C(=O)c1ccc2ccccc2c1)c1nc2ccc(F)cc2s1
2.3%	COC(=O)C1CCN(C2CC(=O)N(c3cc(C)cc(C)c3)C2=O)CC1 (stereo not drawn)
-15.0%	CC(C)(C)CN1CCN(CCCc2ccccc2)C(CCO)C1 (stereo not drawn)
-0.5%	CC(=O)N[C@@H](Cc1ccc(O)cc1)CN1C(N)=NC[C@@H]1CC(C)C
-1.7%	CCOc1ccc(CCNC(=O)c2cc(S(=O)(=O)N3CCOCC3)ccc2C)cc1OCC
2.9%	O=C(Nc1ccc(Oc2ccccc2)cc1)C1CCCN(c2ncccn2)C1 (stereo not drawn)
-10.6%	Cc1nc2c(C(=O)N3CCCC3)cnn2c(C)c1Cc1c(F)cccc1Cl
-11.4%	CNC(=S)/N=C(/Nc1ccccc1)c1ccccc1
-8.1%	CCOCCCNC(=O)c1cc2cc3cc(OC)ccc3nc2o1
4.1%	Cc1nnc(C)c2c(C)n(N)c(C)c12
6.2%	Cc1csc(NC(=O)C(NC(=O)c2ccccc2F)C(C)C)n1 (stereo not drawn)
-10.0%	CCn1c(SCC(=O)Nc2cc(C)on2)nnc1-c1ccc(OC)cc1
-1.5%	CC(C)(Cc1ccc(O)cc1)NC(=O)c1ccccc1
6.0%	CC1CCCN(S(=O)(=O)CCNC(=O)c2ccccc2)C1 (stereo not drawn)
-3.9%	Cc1cc(C)n(-c2ncc3c(n2)N(C)CCOC3=O)n1
12.5%	Clc1c2c(nc3ccccc13)CCC2
-12.9%	CCc1nnc(NC(=O)c2ccc(S(=O)(=O)N3CCCCC3)cc2)s1
-0.8%	CC1=C(C(N)=O)C(c2ccc(Cl)cc2Cl)n2ncnc2N1 (stereo not drawn)
-6.3%	Cc1ccsc1C(=O)OCC(=O)c1cc(C)n(CC2CCCO2)c1C (stereo not drawn)
13.1%	COc1cc(CNn2nnnc2N)cc(Br)c1OCc1c(Cl)cccc1Cl

In the list so far, 5 contain a nitro group on carbon:
VDR inh	SMILES
-9.0%	COc1cc(/C=N/NC(=O)c2cccc([N+](=O)[O-])c2)ccc1OCc1ccc(C)cc1
-6.0%	COc1ccc(C(=O)Nc2ccc(S(=O)(=O)Nc3nccc(C)n3)cc2)cc1[N+](=O)[O-]
9.6%	COc1cccc(NC(=O)c2ccc(NCCCN3CC(C)CC(C)C3)c([N+](=O)[O-])c2)c1 (stereo not drawn)
1.1%	Cc1cc([N+](=O)[O-])nn1CC(=O)N/N=C/c1ccccc1Br
-22.7%	Cc1cc(Br)ccc1NC(=O)CNC(=O)c1ccc(-n2cncn2)c([N+](=O)[O-])c1

Only part of the results is shown; count on the stated rates, not on these rows.
